TRPML1 agonist = qHTS for Agonists of the Human Mucolipin Transient Receptor Potential 1 (TRPML1) | AID 624414, 2012 | Mucolipin-1 (Homo sapiens), Q9GZU1 | TRPML1-expressing cells, Ca2+ dye fluorescence, FDSS; host cell line not named in the record; reference of the full effect not given here | activation, % (concentration not given with the values) | actives 0.12% (n = 410,000); in the data active = activation above about 50%; inconclusive = about 30% to 50%; inactive = below about 30%; also: 0% is about no effect; the text of the record puts the active cut at 80%
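Calcium fluorescence on an FDSS kinetic reader gave the read-out. Tet-induced TRPML1-DL cells were plated overnight, dye-loaded (Ca8 with quencher, 45-90 min, room temperature, dark), then read 110 s after compound addition, and again 110 s after 4uM final 54-4 (EC80).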
Menin-MLL FL inh = qHTS Assay for Inhibitors Targeting the Menin-MLL Interaction in MLL Related Leukemias: Competition With Fluorescein Labeled MLL-derived Peptide. Fluorescence polarization, fluorescein-MLL peptide displacement from menin. FP activity change, % at 61.4 µM. 290,000 tested, under 10 active; inconclusive = falling polarisation curve, or a change in total fluorescence; inactive = total fluorescence flat and polarisation flat or rising; no compound was filed as active; the % refers to the polarisation; negative = inhibition;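 also: % of control where 0% means no effect; inhibitors lower the polarisation; unlabelled MLL peptide was the positive control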
TRPV1 potentiator = HTS Assay for Compounds that Act as Potentiators of the Vanilloid Receptor 1; Transient receptor potential cation channel subfamily V member 1 (Homo sapiens), Q8NER1; TRPV1-expressing cells, Fluo-8 calcium influx, capsaicin EC20 potentiation; host cell line not named in the record; control for the full effect not named in the record; actives 0.02% (n = 320,000); potentiation, % at 8.33 µM; AID 540277, 2011; active means potentiation above 80%; inconclusive means 30% to 80%; inactive means below 30%; also: 0% is about no effect
Target sequence (Q8NER1 whole entry, looked up): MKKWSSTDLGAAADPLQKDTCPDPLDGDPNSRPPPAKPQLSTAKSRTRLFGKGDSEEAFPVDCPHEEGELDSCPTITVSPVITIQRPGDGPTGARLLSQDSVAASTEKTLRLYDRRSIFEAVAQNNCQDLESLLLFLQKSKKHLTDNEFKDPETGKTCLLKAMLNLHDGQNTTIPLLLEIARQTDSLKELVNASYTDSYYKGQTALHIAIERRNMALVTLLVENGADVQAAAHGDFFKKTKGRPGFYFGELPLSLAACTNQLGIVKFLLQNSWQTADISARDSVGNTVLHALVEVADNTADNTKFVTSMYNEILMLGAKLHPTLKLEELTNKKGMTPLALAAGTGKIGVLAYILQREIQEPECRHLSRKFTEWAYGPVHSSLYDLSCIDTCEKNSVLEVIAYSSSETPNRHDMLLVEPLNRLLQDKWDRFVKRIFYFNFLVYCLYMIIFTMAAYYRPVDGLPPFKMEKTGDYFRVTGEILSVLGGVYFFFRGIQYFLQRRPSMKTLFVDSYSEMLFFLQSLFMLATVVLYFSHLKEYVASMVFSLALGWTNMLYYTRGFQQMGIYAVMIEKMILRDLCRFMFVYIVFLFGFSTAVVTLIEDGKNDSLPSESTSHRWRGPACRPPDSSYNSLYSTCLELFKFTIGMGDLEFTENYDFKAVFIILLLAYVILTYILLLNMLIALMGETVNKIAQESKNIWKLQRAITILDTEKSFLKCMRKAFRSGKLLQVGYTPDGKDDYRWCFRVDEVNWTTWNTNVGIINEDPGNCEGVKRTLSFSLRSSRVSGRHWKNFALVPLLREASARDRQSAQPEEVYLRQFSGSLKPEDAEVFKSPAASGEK
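TRPV1-expressing cells were cultured overnight at 35.5C and loaded with Fluo-8 calcium dye for 40 to 90 min at room temperature. After a 10 s baseline, compound was added and calcium influx was read kinetically for 3 min (ex 480/em 520 nm).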
PINK1 expr mod = A Quantitative High throughput Screen to Identify Chemical Modulators of PINK1 Expression; PINK1 immunofluorescence, high-content cytometry, 24 h; Potency, µM (top dose mostly 76.6 µM), for the others: at the highest dose activation (PINK1 increase), most hits filed as activators; actives 0.2% (n = 410,000); AID 624263, 2012; active = well fitted activation curve with a large enough effect; inconclusive = small, poorly fitted or top-dose-only effect; inactive = flat fitted curve, though single readings scatter; cell line not stated here;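 also: potency is read from the fitted curve at half-maximal effect; % of control where 0% means no effect; nearly all actives have a fitted effect of over 65% in size; a mitochondrial uncoupler was the plate control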
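Cells are seeded, rested 12 hours, then given compound at five concentrations or DMSO for 24 hours. After fixation, blocking and antibody staining, PINK1 amount and mitochondrial localization are scored; CCCP serves as control.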
Sfp PPTase inh = qHTS Assay for Inhibitors of Bacillus subtilis Sfp phosphopantetheinyl transferase (PPTase); 4'-phosphopantetheinyl transferase ffp (Bacillus subtilis), Q9F4F7; Biochemical Sfp PPTase activity, qHTS; Potency, µM, inactives show max response, negative = inhibition, actives largely listed as inhibitors; actives 3.5% (n = 310,000); AID 1490, 2009; active = well fitted inhibition curve with a large enough effect; inconclusive = small, poorly fitted or top-dose-only effect, or another doubt; inactive = no such curve, though single readings can be large or run the other way;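 also: the enzyme is Sfp with the accession as filed and its product quenches rhodamine fluorescence; potency is read from the fitted curve at half-maximal effect; 0% = enzyme reaction without inhibitor and -100% = no enzyme wells; top concentration of the series not given in the record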
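Fluorescence-quenching assay with 15 nM Sfp, 5 uM rhodamine-CoA and 12.5 uM BHQ-2-labelled ybbR peptide in pH 7.6 Hepes/MgCl2 buffer. Enzyme was pre-incubated with compound for 15 min at room temperature. Rate was taken from the 30-min fluorescence change (525/598 nm).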
ClpP mod = qHTS Assay for Activators of ClpP | Potency, µM (highest dose often 57.5 µM), inactives show top-dose activity change, negative = active | actives 1.9% (n = 340,000) | purified B. subtilis ClpP, FRET peptide cleavage, 20 min | ATP-dependent Clp protease proteolytic subunit (Bacillus subtilis (strain 168)), P80244; active = well fitted falling curve with a large enough effect; inconclusive = small, poorly fitted or top-dose-only effect; inactive = no such curve, though single readings can be large or run the other way; also: potency is read from the fitted curve at half-maximal effect; the source files actives as falling curves though it sought activators and does not explain the sign; nearly all actives have a fitted effect of over 65% in size; many hits overshoot -100%
Target sequence (P80244 whole entry, looked up): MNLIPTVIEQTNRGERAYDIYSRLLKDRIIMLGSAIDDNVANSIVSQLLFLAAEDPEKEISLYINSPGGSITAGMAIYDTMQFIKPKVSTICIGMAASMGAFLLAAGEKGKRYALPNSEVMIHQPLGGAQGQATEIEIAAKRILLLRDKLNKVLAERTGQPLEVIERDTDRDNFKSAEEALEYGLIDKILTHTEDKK
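Buffer: 100 mM Tris/HCl pH8, 100 mM KCl, 0.05% low protease BSA, 2.5% glycerol, 0.01% Tween-20. ClpP 10 microg/mL final; 20 min RT; delta FRET normalized to ADEP and DMSO controls.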
TRPML1 inh = qHTS for Inhibitors of the Human Mucolipin Transient Receptor Potential 1 (TRPML1); activity change, negative = inhibition, % (no concentration beside the values); actives 0.02% (n = 390,000); Mucolipin-1 (Homo sapiens), Q9GZU1; AID 624415, 2012; TRPML1-inducible cells, Ca2+ dye fluorescence, FDSS; active compounds read low; inhibition of EC80 agonist-evoked calcium signal; in the data active means activity change below about -50%; inconclusive means about -30% to -50%; inactive means above about -30%;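 also: stimulus is agonist 54-4 at its EC80 concentration; % is scaled to controls: 0 for no effect and ±100 for the full control effect; compound concentration not given in the record; the text of the record puts the active cut at -80%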
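Tet-induced TRPML1-DL cells loaded with Ca8 no-wash calcium dye were read kinetically on FDSS. Compound addition was followed by EC80 agonist 54-4 (4 uM final); inhibition was read over 110 s.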
* = called active by the depositor; ? = inconclusive; nt = not tested or not shown; & = joins results of further samples.

SMILES	TRPML1 agonist	Menin-MLL FL inh	TRPV1 potentiator	PINK1 expr mod	Sfp PPTase inh	ClpP mod	TRPML1 inh
Cc1ccccc1CS(=O)(=O)Cc1ccc(C(=O)NCCc2ccc(Cl)cc2)o1	3.4	nt	nt	2.0%	nt	0.6%	-2
CCc1nc2ccc(C(=O)NC(C)(C)C)cn2c1N(CC)Cc1cccc(Br)c1	-1.1	nt	nt	1.7%	nt	-8.1%	nt
COc1ccc(CC(=O)N/N=C(\C)c2ccccn2)cc1	0.1	7.4	-8	-0.3%	-8%	-0.2%	-11
CC(C)(C)n1nc2c(c1NC(=O)c1ccccc1C(F)(F)F)CS(=O)(=O)C2	0.2	nt	-22	-2.4%	6%	3.6%	5
O=C(NCCc1cccs1)C1CC1	-0.2	-0.8	-5	-1.0%	11%	0.7%	0
COc1c(O)ccc(/C=C(\C#N)c2nc3ccccc3[nH]2)c1[N+](=O)[O-]	1.7	?	-17	2.4%	-16%	-0.9%	30
CC(=O)NCC(=O)OCC(=O)N1c2ccccc2Sc2ccccc21	0.3	5.4	-5	2.9%	4%	1.4%	-4
COc1ccc2[nH]c(=O)c(CN(Cc3nnnn3CCc3ccccc3)CC3CCCO3)cc2c1 (centres undefined)	-0.6	-2.4	-5	0.0%	1%	?	-1
COc1cc(/C=C/c2cccc[n+]2C)ccc1OCC(=O)Nc1ccccc1C	-0.3	-19	4	-2.4%	16%	nt	18
CC(=O)Nc1ccc(S(=O)(=O)NC2=C(N3CCN(Cc4ccccc4)CC3)C(=O)c3ccccc3C2=O)cc1	-0.5&0.4	0.2	-5	-4.0%&-2.6%	7%	-0.3%	-6&4
O=C(Cc1cccs1)NCCc1ccc(Cl)cc1	-0.3	nt	?	-0.6%	10%	-0.2%	4
CC(C)Sc1nc(-c2cccs2)nc2c1c(=O)n(C)c(=O)n2C	nt	-5.1	0	nt	-2%	nt	nt
C=CCOC(=O)C1=C[C@H](c2ccccc2)[C@@H](CCCO)[C@H](OCC)O1	0.5	0.0	6	-1.0%	-6%	-2.2%	5
Cc1ccc(C2C3C(=O)N(c4ccc(C)cc4)C(=O)C3N3CCCN23)cc1 (centres undefined)	-0.7	0.2	7	1.2%	-6%	2.2%	-3
O=c1[nH]c2ccccc2n1C1=CCNCC1	-0.5	5.2	15	1.0%	1%	-1.2%	-15
COc1ccc(N2C(=O)CSC23C(=O)N(Cc2ccccc2F)c2ccccc23)cc1Cl (centres undefined)	2.1	nt	nt	0.5%	nt	1.3%	14
CSc1ccccc1NC(=O)CN(C)CC(=O)c1[nH]c(C)c(C(C)=O)c1C	-0.4	nt	nt	0.7%	nt	-1.1%	8
CCOC(=O)C1CCN(C(=O)Cc2c(C(=O)O)n(C)c3ccccc23)CC1	2.5	1.2	-7	0.4%	3%	?	6
O=C(NC1CCCC1)C(c1ccncc1)N(Cc1ccco1)C(=O)c1ccc(-c2ccccc2)[nH]1 (centres undefined)	2.7	-0.6	7	0.4%	?	nt	-9
C[C@@]12CCC=C[C@H]1[C@H](c1ccc3ccccc3c1/C=C/c1ccccc1)N(Cc1ccccc1)C2=O	1.4	2.7	23	-1.4%	-5%	?	54
COc1ccc(NC(=O)c2cc3c(s2)CCC3)cc1S(=O)(=O)N1CCOCC1	0.0	0.7	-17	-1.5%	2%	-5.3%	8
C=CC[C@@H](CC(=O)N[C@H](CO)Cc1ccccc1)C(=O)N[C@H](COC(=O)[C@@H](CC=C)CC(=O)OC(C)(C)C)Cc1c[nH]c2ccccc12	0.1	nt	nt	15%	nt	-3.8%	5
c1ccc(CNc2ncncc2-c2ccc3c(c2)OCO3)cc1	nt	-2.0	nt	5.4%	-8%	nt	nt
CCOCC(O)CNc1ccccc1 (centres undefined)	4.5	1.3	30	0.2%	-1%	0.4%	2
CCN(C(=O)COC(=O)c1cc(-c2ccccc2)nn1-c1ccccc1)C1CCS(=O)(=O)C1 (centres undefined)	-0.1	-7.2	-2	-0.8%	-2%	-0.9%	8
COc1ccccc1NC(=O)/C(C#N)=C/C=C/c1ccco1	-0.4	?	-2	2.8µM*	-8%	3.3%	-7
CNC(=S)N/N=C/c1ccc(-c2cc([N+](=O)[O-])ccc2Cl)o1	0.0	2.2	23	1.4%	?	nt	-3
Nc1nc(CSCCO)nc(Nc2ccccc2)n1	-0.5	1.9	7	0.3%	6%	1.6%	21
COc1cccc(Cn2cc(C(=O)c3ccccc3)c(=O)c3cc4c(cc32)OCO4)c1	2.2	nt	nt	-0.7%	nt	-1.8%	13
COc1ccc(C(=O)NCC(=O)OCC(=O)c2c[nH]c3ccccc23)cc1	-1.3	nt	nt	0.6%	nt	-0.6%	7
O=C(CCc1nc(-c2ccc(Cl)cc2)no1)OCc1ccc(Br)cc1	1.6	nt	nt	0.2%	nt	-1.8%	13
CC(=O)NC(CC(=O)Nc1nc(C)cs1)c1ccccc1 (centres undefined)	0.0	1.8	3	4.0%	10%	1.1%	-4
COc1ccc(NC(=O)CCC(=O)Nc2nnc(C3CCCCC3)s2)cc1	-0.7	-0.3	16	-0.4%	9%	nt	-4
CC(C)[C@H](NC(=O)c1ccco1)C(=O)OCC(=O)N1CCc2ccccc21	0.5	-1.4	-3	0.2%	19%	-1.2%	19
CCNC(=O)COc1ccc(C=O)cc1OC	-0.4	13	3	-0.4%	11%	-5.4%	6
COc1ccc(C)c2sc(NC(=O)C3=COCCO3)nc12	nt	-1.0	4	nt	8%	nt	nt
O=C(OCC(=O)c1ccc[nH]1)c1ccc(Cl)nc1	0.2	nt	-3	-0.3%	nt	nt	-7
COCCNC(=O)c1ccc(N2CC3CC(C2)c2cccc(=O)n2C3)c(NC(=O)c2c(F)cccc2F)c1 (centres undefined)	4.7	4.0	3	-0.6%	14%	-0.8%	3
COc1ccc(N2CCN(C(=O)COC(=O)CCc3ccccc3)CC2)cc1	-0.7	nt	-14	0.0%	nt	2.3%	-14
Oc1ccc(Cl)cc1C1C=C(c2ccc3c(c2)OCO3)NC(c2ccc(Cl)cc2)N1 (centres undefined)	2.7	nt	nt	2.2%	nt	-3.0%	nt
CSc1ccccc1OCc1cc(C(=O)N2CCc3[nH]cnc3C2c2ccccn2)no1 (centres undefined)	0.9	nt	8	0.0%	12%	-3.6%	18
COc1cc(/C=C/C(=O)O)cc(S(=O)(=O)Nc2ccccc2Oc2ccccc2)c1OC	-0.8	0.0	-4	0.2%	8%	-2.1%	-9
Cc1ccc(-c2nc3cccnc3s2)cc1NS(=O)(=O)c1ccc2c(c1)OCCO2	-0.4	3.7	24	3.6%	19%	-25%	17
COc1ccc(-c2[nH][nH]c(=O)c2NC(=O)c2ccc([N+](=O)[O-])cc2)cc1	-0.1	nt	nt	0.1%	nt	-6.8%	nt
CC1(c2nnc(-c3ccccc3)o2)CC(c2ccncc2)=NO1 (centres undefined)	-0.6	1.1	-29	-0.5%	7%	1.7%	3
COc1ccc(/C=C2\CCC(C3CCCC3)C2=O)c(OC)c1OC (centres undefined)	0.7	-0.9	-2	1.2%	-4%	-3.3%	21
COc1ccc(C(=O)Nc2cccc(-c3cc4ccccc4oc3=O)c2)cc1[N+](=O)[O-]	-0.6	-1.9	1	7.6%	?	-3.2%	-1
CCOc1ccc(CSC(=N)N)cc1Cl	0.7	0.0	4	3.5%	?	-2.5%	-4
O=C(O)CN1C(c2ccccc2O)Nc2ccc(Br)cc2C1c1ccccc1 (centres undefined)	-0.3	0.8	15	4.3%	3%	nt	-6
COc1ccccc1C(=O)N/C(=C\c1ccc(Br)cc1)C(=O)N1CCCC1	0.5	0.2	-12	0.9%	5%	nt	55
CO/N=C\C(=N\Nc1ccc(OC)cc1)C(=O)c1ccccc1	3.9	-2.3	0	4.4%	?	-0.4%	60
COc1ccc(-n2nc3c(N4CCCC(C(=O)NCCc5ccccc5C)C4)nnc(C)c3c2C)cc1 (centres undefined)	2.8	nt	nt	-0.6%	nt	3.9%	6
N/C(=N\c1nc2ccccc2o1)NC(=O)c1ccccc1NC(=O)c1ccccc1	-0.6	1.8	5	9.3%	-14%	40%	47
CCOCCCNC(=O)C1CCCN(S(=O)(=O)CC)C1 (centres undefined)	-0.4	0.9	17	0.3%	12%	4.2%	2
CC[C@]12c3[nH]c4cc(-c5ccco5)ccc4c3CCN1C(=O)[C@@H](CC(=O)NCC13CC4CC(CC(C4)C1)C3)C[C@@H]2C(=O)N1CCN(C(=O)c2ccco2)CC1	0.7	nt	nt	-0.1%	nt	-18%	24
CSc1nnc(-c2sccc2OCc2ccccc2)n1C	1.3	1.3	-23	-2.4%	12%	-7.7%	10
Cc1cc(O)c(C(C)C)cc1N=Cc1ccc(N(C)C)cc1	0.1	nt	nt	0.1%	nt	-1.2%	13
COc1ccc(O)c(C(=O)c2cnn(-c3ccccc3)c2)c1	0.5	11	8	-0.5%	-1%	nt	-15
CC1CCCCC1NC1=NCCS1 (centres undefined)	-0.3	5.9	-17	-1.8%	15%	-1.0%	24
Cc1cc(C)c(C)c(S(=O)(=O)N2CCNC(=O)C2)c1C	-0.1	nt	nt	-0.8%	nt	-2.1%	9
O=C(Oc1ccccc1)c1ccc2c(c1)C(=O)N(Cc1ccncc1)C2=O	1.0	0.0	-1	2.5%	8%	nt	29

Compound activity (PubChem BioAssay)
